# ClpP mod: qHTS Assay for Activators of ClpP. ATP-dependent Clp protease proteolytic subunit (Bacillus subtilis (strain 168)), P80244. purified B. subtilis ClpP, FRET peptide cleavage, 20 min. Potency, µM (series often up to 57.5 µM), without a hit: at the top dose activity change, negative = active. 340,000 tested, 1.9% active; active = well fitted falling curve with a large enough effect; inconclusive = small, poorly fitted or top-dose-only effect; inactive = no such curve, though single readings can be large or run the other way; note: potency is the fitted concentration of half-maximal effect; the source files actives as falling curves though it sought activators and does not explain the sign; nearly all actives have a fitted effect of over 65% in size; many hits overshoot -100%
# Target sequence (P80244 whole entry, looked up): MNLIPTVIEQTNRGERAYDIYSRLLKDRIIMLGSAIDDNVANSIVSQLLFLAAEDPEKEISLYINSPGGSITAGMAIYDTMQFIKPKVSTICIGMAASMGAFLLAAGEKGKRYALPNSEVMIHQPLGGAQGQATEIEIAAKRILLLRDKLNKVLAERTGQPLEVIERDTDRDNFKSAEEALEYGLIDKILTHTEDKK
#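 Purified B. subtilis ClpP, 10 microg/mL final in Tris/HCl pH8 with KCl, BSA, glycerol and Tween-20, cleaved an Abz/nitrotyrosine-quenched decapeptide. Fluorescence (ex 320, em 430) was read at 0 and 20 min at room temperature. Delta was normalized to 5.8 microM ADEP and DMSO/no-enzyme controls.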
# gsp antagonist: qHTS for Antagonists of gsp, the Etiologic Mutation Responsible for Fibrous Dysplasia/McCune-Albright Syndrome: qHTS; 340,000 tested, 0.4% active; Potency, µM (top dose mostly 76.9 µM), for inactives: top-dose activity change, negative = inhibition, hits mostly inhibitors; gsp-mutant cells, cAMP HTRF, 30 min; control for the full effect not named in the record; active = falling curve of any shape with a large fitted effect; inconclusive = falling curve, mostly with a smaller effect; inactive = flat or rising curve; cell line not stated here;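 note: intracellular cAMP measured with PDE inhibitor Ro 20-1724 present during compound exposure; potency is the fitted concentration of half-maximal effect; % is set by controls: 0 for no effect and ±100 for the full control effect; nearly all actives have a fitted effect of over 65% in size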
#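 Measurement of cellular cAMP by homogeneous time-resolved fluorescence following a 30 min compound exposure at 37C. The PDE inhibitor […] was present throughout; the assay buffer was DPBS with 0.05% BSA and 0.005% Tween 20.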
# gsp agonist: qHTS for Agonist of gsp, the Etiologic Mutation Responsible for Fibrous Dysplasia/McCune-Albright Syndrome: qHTS. 340,000 tested, 0.13% active. gsp mutant cells, cAMP HTRF, 30 min; control for the full effect not named in the record. Potency, µM (titrated, usually from 76.9 µM), for inactives: at the top dose activation (cAMP increase), actives largely listed as activators; active = well fitted activation curve with a large enough effect; inconclusive = small, poorly fitted or top-dose-only effect, or another doubt; inactive = no such curve, though single readings can be large or run the other way; cell line not stated here;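 note: phosphodiesterase inhibitor Ro 20-1724 added with compounds to block cAMP breakdown; potency is the fitted concentration of half-maximal effect; nearly all actives have a fitted effect of over 60% in size; about a fifth of the inactives were tested at one dose only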
#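 Cells in DMEM/10% FBS with G418 were pretreated with compounds in DMSO plus […] (300 uM stock) for 30 min at 37C. cAMP was measured by HTRF (cAMP-d2 plus anti-cAMP antibody-K) after 30 min at room temperature.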
# TRPML1 agonist: qHTS for Agonists of the Human Mucolipin Transient Receptor Potential 1 (TRPML1). Mucolipin-1 (Homo sapiens), Q9GZU1. TRPML1-expressing cells, Ca2+ dye fluorescence, FDSS; host cell line not named in the record; reference of the full effect not given here. activation, % (test concentration not listed). 410,000 tested, 0.12% active. AID 624414, 2012; in the data active = activation above about 50%; inconclusive = about 30% to 50%; inactive = below about 30%; note: 0% is about no effect; the text of the record puts the active cut at 80%
# Target sequence (Q9GZU1 whole entry, looked up): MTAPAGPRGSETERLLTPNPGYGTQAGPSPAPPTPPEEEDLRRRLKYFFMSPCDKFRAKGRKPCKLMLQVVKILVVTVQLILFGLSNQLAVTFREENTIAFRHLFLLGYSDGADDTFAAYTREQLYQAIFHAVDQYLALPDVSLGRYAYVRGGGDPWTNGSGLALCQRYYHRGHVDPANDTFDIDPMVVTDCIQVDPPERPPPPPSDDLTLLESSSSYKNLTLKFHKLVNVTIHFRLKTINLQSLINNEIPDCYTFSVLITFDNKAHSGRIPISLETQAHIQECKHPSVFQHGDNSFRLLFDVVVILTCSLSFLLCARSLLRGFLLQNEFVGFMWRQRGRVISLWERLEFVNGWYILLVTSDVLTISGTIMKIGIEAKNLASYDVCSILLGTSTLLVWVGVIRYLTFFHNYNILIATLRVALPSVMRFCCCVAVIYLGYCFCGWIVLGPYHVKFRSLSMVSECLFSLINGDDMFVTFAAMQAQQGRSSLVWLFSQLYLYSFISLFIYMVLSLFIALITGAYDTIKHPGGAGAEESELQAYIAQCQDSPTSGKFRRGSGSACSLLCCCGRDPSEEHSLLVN
#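 Tetracycline-induced TRPML1-DL cells are seeded and incubated overnight before loading with a no-wash Ca2+ dye and quencher. Agonist activity is taken from the 110 s fluorescence read following compound pin-transfer on an FDSS, before EC80 54-4 challenge.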
# TRPML1 inh: qHTS for Inhibitors of the Human Mucolipin Transient Receptor Potential 1 (TRPML1). 390,000 tested, 0.02% active. TRPML1-inducible cells, Ca2+ dye fluorescence, FDSS; active compounds read low; inhibition of EC80 agonist-evoked calcium signal. activity change, negative = inhibition, % (test concentration not listed). Mucolipin-1 (Homo sapiens), Q9GZU1; in the data active means activity change below about -50%; inconclusive means about -30% to -50%; inactive means above about -30%;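 note: stimulus is agonist 54-4 at its EC80 concentration; % is set by controls: 0 for no effect and ±100 for the full control effect; compound concentration not given in the record; the text of the record puts the active cut at -80%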
#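 Tet-induced TRPML1-DL cells loaded with Ca8 no-wash calcium dye were read kinetically on FDSS. Compound addition was followed by EC80 agonist 54-4 (4 uM final); inhibition was read over 110 s.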
# Menin-MLL FL inh: qHTS Assay for Inhibitors Targeting the Menin-MLL Interaction in MLL Related Leukemias: Competition With Fluorescein Labeled MLL-derived Peptide; Fluorescence polarization, fluorescein-MLL peptide displacement from menin; FP activity change, % at 61.4 µM; 290,000 tested, under 10 active; AID 1766, 2009; inconclusive = falling polarisation curve, or a change in total fluorescence; inactive = total fluorescence flat and polarisation flat or rising; no compound was filed as active; the % refers to the polarisation; negative = inhibition;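 note: % of control where 0% means no effect; inhibitors lower the polarisation; unlabelled MLL peptide was the positive control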
# * hit, by the source's call; ? = inconclusive; nt = no result given; [ ] = another dose, or the depositor's remark.
SMILES,ClpP mod,gsp antagonist,gsp agonist,TRPML1 agonist,TRPML1 inh,Menin-MLL FL inh
CC(C)(CC(=O)O)CC(=O)N1CCN(c2nc3cc(Cl)ccc3s2)CC1,-0.7%,-19%,-3%[15.4 µM],-0.4,-3,-0.5
Cn1cccc1C(=O)NCC1COc2ccccc2O1 (configuration not stated),-1.1%,-5%,-2%,-0.9,7,nt
O=C(COC(=O)c1ccccn1)Nc1ncc(C(F)(F)F)cc1Cl,2.1%,4%,0%,1.0,3,?
CCc1ccc(S(=O)(=O)c2nnn3c2nc(N2CCC(C(N)=O)CC2)c2cc(Cl)ccc23)cc1,-26%,nt,nt,0.5,16,nt
[O-][n+]1c2c(nn1-c1ccccc1Cl)-c1nonc1CC2,0.7%,-4%,?,0.6,-9,5.6
COc1cc(CNCc2cccs2)ccc1OCC(=O)NC(C)(C)C,-1.8%,12%,-62%[inhibitor],0.8,-1,6.7
CC(/C=N/n1c(-c2cccnc2)n[nH]c1=S)=C\c1ccccc1,-3.5%,-24%,-37%[inhibitor],-0.3,19,0.7
CCOc1ncccc1C(=O)NCC(c1ccccc1)N(C)C (configuration not stated),1.1%,13%,?,-0.3,-6,nt
Oc1c(N=NC(=S)Nc2ccccc2F)c2ccccc2n1Cc1ccccc1,1.5%,11%,2%,-0.2,54,-2.8
Cc1cc2c(cc1S(=O)(=O)Nc1cccc(C(F)(F)F)c1)OCCN2C,1.3%,nt,nt,-0.2,-8,nt
O=S(=O)(NCc1ccc2c(c1)OCO2)c1ccc(Cl)s1,-6.1%,2%,8%[15.4 µM],1.7,12,nt
O=C(O)C1CCCN1S(=O)(=O)c1ccc2[nH]c(=O)c(=O)[nH]c2c1 (configuration not stated),?,1%,34%,-0.6,-6,-1.5
Cc1cc(C)n(-c2ccc(S(N)(=O)=O)cc2[N+](=O)[O-])n1,nt,9%,-1%,-0.1,2,-2.5
CCCCCCCC1(C)NC(=O)N(CC(=O)Nc2cc(C)on2)C1=O (configuration not stated),nt,nt,1%[15.4 µM],-0.4,-5,0.2
CCSc1nnc(NC(=O)c2nc(S(=O)(=O)Cc3ccc(F)cc3)ncc2Cl)s1,nt,40µM*,-15%[15.4 µM],1.0,-7,nt
N#C/C(=C\c1ccc(N2CCOCC2)o1)C(=O)NCC1CCCO1 (configuration not stated),1.5%,?,-16%,5.1,-9,4.4
Cc1nnc(SCC(=O)N2CCc3ccccc3C2)n1-c1ccccc1,-0.6%,3%,-1%[15.4 µM],-0.2,-1,-3.5
CCOC(=O)C1=CCN(S(=O)(=O)c2ccc(F)cc2)C1c1ccc(C)cc1 (configuration not stated),2.4%,nt,nt,0.8,13,nt
CCOC(=O)c1ccc(NC(=O)CSc2nc3c(c(=O)n2C)SC(C)C3)cc1 (configuration not stated),0.2%,?,-2%,1.9,9,1.5
CCOc1ccc(C(=O)Nc2cccc(C(=O)OCc3cc(=O)n4cc(C)sc4n3)c2)cc1,-5.7%,nt,nt,0.6,7,nt
O=C(/C=C/c1ccccc1)N1CCN(Cc2cc(=O)n3nc(-c4ccccc4Cl)sc3n2)CC1,-15%,nt,nt,-0.6,-10,nt
CCOC(=O)CSc1nnc(-c2ccco2)n1-c1ccccc1,0.3%,-5%,1%,-0.1,-1,?
CCN(Cc1nc2ccccc2c(=O)[nH]1)Cc1cc(=O)oc2cc(OC)ccc12,?,-2%,-28%,0.6,-2,-0.6
CN1CCS/C1=C\C=C1/SC(=S)N(CC(=O)O)C1=O,nt,?,-4%,29,-4,?
Cc1nnc(-c2cnn(C)c2N)n1Cc1ccc(Cl)cc1,1.3%,4%,0%,1.4,-2,-0.6
Cc1onc(-c2ccccc2)c1C(=O)c1c[nH]c(C(=O)NCc2ccncc2)c1,nt,-2%,-2%[15.4 µM],1.1,-4,-3.3
O=C1O/C(=C\c2ccccc2)c2ccccc21,0.2%,2%,-2%,6.6,38,-0.2
CCN(CC)CCCNC(=O)c1cc2c(=O)n(CC)c3ccccc3c2s1,3.6%,14%,23%,1.5,-15,6.9
O=C(NCc1cccs1)C(=O)NCC(c1ccco1)N1CCN(c2ccc(F)cc2)CC1 (configuration not stated),nt,-6%,-8%[15.4 µM],-0.2,-7,2.0
Cc1cccc(C)c1NC(=O)CN(C)C(=O)c1cc([N+](=O)[O-])ccc1N1CCOCC1,1.4%,14%,-37%[inhibitor],0.5,43,nt
CN(C(=O)c1cccc(NC(=O)Cc2cccc([N+](=O)[O-])c2)c1)C1CCC1,2.3%,-9%,nt,1.2,34,nt
COc1ccccc1NC(=O)N(CCCN1CCOCC1)Cc1cc2cc3c(cc2[nH]c1=O)OCO3,20µM*,5%,?,-0.1,5,-5.6
COc1ccc(-c2nc(CS(=O)(=O)CC(=O)NCc3ccccc3OC)c(C)o2)cc1,?,-5%,3%,1.3,-27,-0.1
CCc1ccc(S(=O)(=O)c2cn(CC(=O)Nc3ccc(C)cc3)c3ccccc3c2=O)cc1,-4.1%,nt,nt,-0.9,-15,nt
COc1cccc(OCc2nc3ccccc3[nH]2)c1,0.2%,3%,-7%,-1.4,-2,1.7
O=C(NCc1cccs1)c1csc2ccccc12,-0.9%,-4%,15%,0.6,-8,-1.3
O=C1CC(=O)CC(c2ccco2)C1,-5.4%,1%,15%,-0.5,-4,2.1
O=C(N/N=C/c1ccccc1O)c1cc[n+]([O-])cc1,nt,1%,-61%[inhibitor],0.8,-6,11
O=C(c1cc([N+](=O)[O-])ccc1N1CCOCC1)N1CCCCC1,-13%,7%,-1%,-0.5,-17,8.7
CC(=O)c1cccc(CN2CCN(CC(C)C)C(CCO)C2)c1 (configuration not stated),-0.3%,15%,9%,0.6,17,0.6
O=C(CCCN1C(=O)c2ccccc2C1=O)Nc1ccc(S(=O)(=O)N2CCCCC2)cc1,0.7%,-8%,-28%,0.0,5,0.5
COc1cc(/C=C/C(=O)OCC(=O)NCc2ccc(F)cc2)ccc1O,nt,-4%,14%,1.6,10,nt
CC(=O)N1CCN(CCN=CC2=C(O)CC(c3cccs3)CC2=O)CC1 (configuration not stated),-1.7%,-6%,5%,-0.2,-12,0.5
O=C(Nc1ccccc1-c1ccccc1NC(=O)c1ccco1)c1ccco1,-0.2%,-2%,1%,1.4,19,1.6
CN(CCCN1CCOCC1)C(=O)c1cc(COc2cccc(C(F)(F)F)c2)on1,2.4%,5%,-3%,-1.2,3,nt
O=C(COC(=O)Cn1cnc2ccccc21)NCCCc1ccccc1,nt,7%,-41%[inhibitor],0.6,15,-6.5
COc1ccc(-c2ccc(S(=O)(=O)N3CCCC3)cc2)cc1,nt,-10%,18%,0.2,-5,0.9
Cc1cc(C)n(CC(=O)NCCC2=CCCCC2)n1,nt,10%,31%,0.8,4,-0.2
O=C(O)C1=C2C(=O)Nc3cccc(c32)C2(C1)C(=O)Nc1ccccc12 (configuration not stated),-0.4%,nt,-15%,-0.6,0,nt
Cc1[nH]c2ccccc2c1/C=C(\C#N)C(=O)NCC1CCCO1 (configuration not stated),1.9%,-8%,-30%[inhibitor],1.5,32,0.3
COc1cccc(NC(=O)Cn2c(CCC(=O)O)ccc2-c2ccc(C)cc2)c1,-9.0%,-10%,-98%[inhibitor],0.4,-1,3.0
CC(Oc1cc(Cl)ccc1Cl)C(=O)N/N=C\c1ccnn1C (configuration not stated),1.2%,-1%,6%,-0.3,-12,-1.8
COc1ccc(OC)c(-c2nn(-c3ccccc3)cc2C(=O)NC2(C)CCS(=O)(=O)C2)c1 (configuration not stated),-13%,nt,-50%[inhibitor],-0.5,5,nt
CCOc1ccc(NC(=O)Cc2csc(COc3cccc(C)c3)n2)cc1,1.2%,nt,nt,-1.0,33,nt
COc1ccccc1N(CC(=O)NCc1ccc(F)cc1)C(=O)CCC(=O)Nc1ccccn1,nt,1%,10%,0.7,-5,2.0
O=C(CSc1nnc(-c2ccccc2)o1)NC1CC1,nt,6%,1%[15.4 µM],-0.2,6,nt
C=C(C)C(=O)Nc1cccc(C2=NOC3(C2)C[C@@H](C(N)=O)N(C(=O)CC(c2ccccc2)c2ccccc2)C3)c1 (some centres not stated),-1.8%,-18%,nt,0.3,9,-1.1
Cn1c(COc2ccc(Cl)cc2)nc2ccccc2c1=O,-3.8%,-14%,-3%,1.4,33,6.1
CCC(C)(C)NC(=O)CN(C(=O)CCC(=O)Nc1cc(C)ccn1)c1ccc2c(c1)OCO2,3.1%,0%,5%,-0.1,14,-1.0
CN(CCCNC(=O)c1ccc(/C=N/O)nc1)CCCN(C)Cc1ccccc1,-2.0%,7%,13%,0.0,9,-2.0

# Further entries:
SMILES,ClpP mod,gsp antagonist,gsp agonist,TRPML1 agonist,TRPML1 inh,Menin-MLL FL inh
COc1cc(C=NNC(=O)Cn2nc(C)cc2C)ccc1OC(=O)C1CC1,-2.1%,-6%,-1%,1.8,11,nt
Cc1ccc(Sc2c(C)nn(C(=O)c3ccc(Br)cc3)c2C)cc1,-17%,nt,nt,1.9,54,nt
COc1ccc(-c2nn(Cc3ccccc3)cc2C(=O)N2CCN(c3ncccn3)CC2)cc1,-7.7%,-16%,26%,-1.4,8,nt
Cc1cccc(NC(=O)C(=O)NCC2CCCN2S(=O)(=O)c2ccccc2)c1 (configuration not stated),0.9%,-1%,-5%[15.4 µM],0.2,14,nt

# Source: PubChem
